Screens: PubChem BioAssay, ICCB-Longwood Screening Facility, Harvard Medical School
CapD inh: CapD enzyme inhibition | purified CapD enzyme, fluorescence intensity read-out; active compounds read low; some hits fall short of the stated cut | z-score (no concentration beside the values) | 140,000 compounds, 0.23% hits | AID 492967;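 active = z-score under -4 in either of two replicates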;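 note: stock transfer was 100 nL into about 40 µL; score is relative to mean and spread of the plate; one replicate is shown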
AID504770: growth inhibitors of E. coli YBA685 in a screen for V. cholerae RctB (chromosome II replication) inhibitors. AID 504770. 130,000 compounds, 0.27% hits. z-score (concentration not given with the values). E. coli YBA685 rctB-dependent plasmid, OD600 growth, 3 h; active compounds read low;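 active = z-score under -2 on both plates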;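 note: wells of about 30 µL received 100 nL stock; score is relative to mean and SD of the test wells; the first replicate is given; strong numbers were not always called active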
Active calls of the source: *; nt = not tested or not shown. Hits appear at their usual frequency. About 0.37% of those tested had a hit in this group.

The first 18 compounds as a preview:
SMILES	CapD inh	AID504770
CCOc1ccccc1N(C)S(=O)(=O)c1c(/C=C/N(C)C)noc1C	-3.1	0.55
CCCS(=O)(=O)N1CCN=C1SCc1ccccc1	-0.71	-0.5
COc1ccc(NC(=O)CC2C(=O)N(c3ccccc3)C(=O)N2C(C)C)cc1 (centres undefined)	68	-0.8
N#CCSc1nc2c(sc(=S)n2-c2ccccc2)c(=O)n1Cc1ccco1	-0.32	nt
CCn1nnc2cc(C(=O)N(C3=NC(C)CS3)c3ccc(Cl)cc3)ccc21 (centres undefined)	nt	-0.15
N#CCOC(=O)c1c2c(nc3ccccc13)CCCC2	nt	-0.05
CC(O)CC#CCN1CCCC(c2cccnc2)C1 (centres undefined)	0.24	-0.15
OC(Cc1ccccc1)(c1ccccc1)c1ccccc1NC(=S)NC1CC2C=CC1C2 (centres undefined)	-0.46	-0.85
CCOC(=O)C1=C(C)NC(C)=C(C(=O)OCC)C1C(=O)OCC(=O)N1CCCc2ccccc21	nt	0.05
CN(C)c1cc(-c2nnc(SCc3noc(C(C)(C)C)n3)n2C)nc(N(C)C)n1	18	nt
CCOC(=O)Nc1ccc(N2C(=O)C3C4C=CC(C4)C3C2=O)cc1 (centres undefined)	0.27	0.15
CCCOc1ccc(C2NC(=O)NC(C)=C2C(=O)OCCOc2ccccc2)cc1OC (centres undefined)	-0.32	nt
COc1ccc(C(=O)N2N=C(C3CCCCC3)CC2(O)C(F)(F)F)cc1 (centres undefined)	-1.1	nt
COc1ccc(Nc2nc(N3CCN(CCO)CC3)nc3c2cnn3C)cc1Cl	-0.07	0.15
NC(=S)c1ccc(S(=O)(=O)N2CCOCC2)cc1	0.04	0.25
O=C(CC1CCCC1)Nc1ccc(S(=O)(=O)C(F)F)cc1	nt	-0.3
CCCC1=NN(c2nc3ccccc3s2)C(=O)/C1=C/N(C)C	37	-0.9
O=C(CO/N=C/c1cccs1)N1CCN(c2ccccc2)CC1	nt	0.15

The listing, previewed entries included:
SMILES	CapD inh	AID504770
CCOc1ccccc1N(C)S(=O)(=O)c1c(/C=C/N(C)C)noc1C	-3.1	0.55
CCCS(=O)(=O)N1CCN=C1SCc1ccccc1	-0.71	-0.5
COc1ccc(NC(=O)CC2C(=O)N(c3ccccc3)C(=O)N2C(C)C)cc1 (centres undefined)	68	-0.8
N#CCSc1nc2c(sc(=S)n2-c2ccccc2)c(=O)n1Cc1ccco1	-0.32	nt
CCn1nnc2cc(C(=O)N(C3=NC(C)CS3)c3ccc(Cl)cc3)ccc21 (centres undefined)	nt	-0.15
N#CCOC(=O)c1c2c(nc3ccccc13)CCCC2	nt	-0.05
CC(O)CC#CCN1CCCC(c2cccnc2)C1 (centres undefined)	0.24	-0.15
OC(Cc1ccccc1)(c1ccccc1)c1ccccc1NC(=S)NC1CC2C=CC1C2 (centres undefined)	-0.46	-0.85
CCOC(=O)C1=C(C)NC(C)=C(C(=O)OCC)C1C(=O)OCC(=O)N1CCCc2ccccc21	nt	0.05
CN(C)c1cc(-c2nnc(SCc3noc(C(C)(C)C)n3)n2C)nc(N(C)C)n1	18	nt
CCOC(=O)Nc1ccc(N2C(=O)C3C4C=CC(C4)C3C2=O)cc1 (centres undefined)	0.27	0.15
CCCOc1ccc(C2NC(=O)NC(C)=C2C(=O)OCCOc2ccccc2)cc1OC (centres undefined)	-0.32	nt
COc1ccc(C(=O)N2N=C(C3CCCCC3)CC2(O)C(F)(F)F)cc1 (centres undefined)	-1.1	nt
COc1ccc(Nc2nc(N3CCN(CCO)CC3)nc3c2cnn3C)cc1Cl	-0.07	0.15
NC(=S)c1ccc(S(=O)(=O)N2CCOCC2)cc1	0.04	0.25
O=C(CC1CCCC1)Nc1ccc(S(=O)(=O)C(F)F)cc1	nt	-0.3
CCCC1=NN(c2nc3ccccc3s2)C(=O)/C1=C/N(C)C	37	-0.9
O=C(CO/N=C/c1cccs1)N1CCN(c2ccccc2)CC1	nt	0.15
CC(=O)n1c2c(c3ccccc31)OC(N)=C(C#N)C2c1ccc(Cl)c([N+](=O)[O-])c1 (centres undefined)	0.64	nt
Cc1cccc(CSc2ncnc3nc[nH]c23)c1	-0.86	-0.3
O=C1NC2(Nc3ccccc31)C(=O)N(Cc1cccc3ccccc13)c1ccccc12 (centres undefined)	6.5	nt
COc1ccccc1NC(=S)N(C)CCO	nt	0.3
CCC(C(=O)NC1CCCC1)N(C(=O)Cn1nnc(-c2cccs2)n1)c1cnc2ccccc2c1 (centres undefined)	nt	0.45
CCc1ccc(NC(=O)c2ccc3c(Cl)c4c(nc3c2)CCC4)cc1	-0.2	0.7
CCOc1cc(C(=O)Nc2c3c(nn2-c2ccc([N+](=O)[O-])cc2)CSC3)cc(OCC)c1OCC	-0.43	nt
c1ccc2c(c1)Nc1nc3ccccc3nc1N2	nt	-0.35
Cn1c(=O)c2c([nH]c(=S)n2Cc2ccc(F)cc2)n(C)c1=O	-0.05	nt
O=C(CCNc1ccc(Oc2ccccc2)cc1)c1ccco1	0.8	-0.9
CC1CCCCC12NC(=O)N(CN1CCN(S(=O)(=O)c3ccc4c(c3)OCCCO4)CC1)C2=O (centres undefined)	nt	-1.2
CCOC(=O)c1cc(-c2ccc(C#N)cc2)nn1-c1ccc(S(N)(=O)=O)cc1	nt	0.1
Cc1nc(SCCCSc2n[nH]c(C)n2)n[nH]1	-0.075	-0.3
COCCNC(=O)c1ccc(N2CC3CC(C2)c2cccc(=O)n2C3)c(NC(=O)c2cc(OC)ccc2Br)c1 (centres undefined)	-0.15	nt
CCOc1ccc(OCC)c(C2C(Cc3ccccc3)N3c4ccccc4C=CC3C2(C#N)C#N)c1 (centres undefined)	2.2	0.05
O=c1[nH]ncn2c1c(-n1cccc1)c1c3c(sc12)CCCC3	0.035	-0.5
C=CCN(C(=O)C1CCCC1)c1nc2c(s1)CCCC2	nt	-1.1
CC(C)OC(=O)CCCN1C(=O)c2ccc(N)cc2C1=O	-1	0.35
CCOC(=O)C(Cc1ccc(O)cc1)NS(=O)(=O)c1ccc2c(c1)C(=O)c1ccccc1C2=O (centres undefined)	0.19	nt
COc1ccccc1C1CCN(S(=O)(=O)c2cc(Cl)cc(Cl)c2)CC1	0.12	nt
CCOc1ncccc1C(=O)N1CCSC1=NCc1ccccc1	nt	0.25
Cc1csc(NC(=O)CN(C)S(=O)(=O)c2cccc3cccnc23)n1	0.17	-0.3
CCSc1nc(-c2ccc(Cl)cc2)c(C#N)c(=O)n1CC	44	0.6
CCN(CC)C(=O)/C=C\c1cn(-c2ccccc2)nc1-c1ccc(OC)cc1	3.8	-0.4
COc1ccc2c(CC(=O)OCC(=O)Nc3cc(C(F)(F)F)ccc3N3CCOCC3)coc2c1	nt	-0.85
OC1(C2(O)CC(c3ccccc3)NO2)CCCCC1 (centres undefined)	0.77	-0.5
CC(C)c1ccc(C(C)NC(=O)C2=COCCO2)cc1 (centres undefined)	nt	0.05
O=C1Nc2ccccc2N(O)N1c1ccc(O)cc1	-0.23	-1.6
CC(C)CNC(=O)C1CCCCC1C(=O)O (centres undefined)	0.39	-0.7
N#Cc1cncc(C#Cc2ccccc2)c1	1.4	nt
CCn1c(C)nnc1SCc1cccc(Cl)c1	-0.26	-0.95
Cc1cccc(NC(=O)CNC(=O)Cc2ccc3c(c2)OCCO3)c1C	nt	1.3

Continuation:
SMILES	CapD inh	AID504770
COC(=O)C1=CN(Cc2ccc3c(c2)OCO3)C=C(C(=O)OC)C1c1ccc2c(c1)OCO2	28	-0.15
O=C(NC1CCCCC1)c1ccccc1F	nt	0.35
OC1c2ccnn2[C@@H](O)c2ccnn21 (some centres undefined)	0.39	nt
COc1cc(CN2CCN(CCOC(=O)NNC(=O)CSc3ncnc4c(C)csc34)CC2)cc2c1OCO2	-0.28	nt
O=C(COc1ccccc1)NC(C(=O)O)C12CC3CC(CC(C3)C1)C2 (centres undefined)	nt	-0.3
CO[C@H]1O[C@H](CO)C(=O)C(O)=C1N	-1.2	1.2
O=C(c1ccc(Cl)cc1)N1CCc2c([nH]c3ccccc23)C1	-0.11	nt
O=C(O)c1cc(-c2ccccc2)c(N2CCOCC2)s1	-0.78	-1.4
Cc1c(C(=O)NC(C)C)oc2ccc3c(c12)C(O)CC(C)(C)O3 (centres undefined)	42	1.1
Cc1cccc(NC(=O)C(Cc2c[nH]c3ccccc23)NC(=O)OC(C)(C)C)c1C (centres undefined)	0.12	nt
COC(=O)Cc1nc(Nc2ccc(OC)cc2OC)c2c(C)c(C)sc2n1	-0.25	nt
Cc1cccc(/N=C/c2c(O)n(Cc3ccc4c(c3)OCO4)c(=O)c3ccccc23)n1	nt	-0.15
Cc1nc(C(F)(F)F)ccc1C(=O)Nc1ccc(C(F)(F)F)cn1	1.1	-0.85
CC(=O)Nc1c2c(nn1-c1ccccc1)CSC2	0.48	-0.5
CC(=S)Nc1ccc2c(c1)OCO2	nt	-0.15
CC1(C)Cc2nnc3c4c(nnc(c24)C1)CC(C)(C)C3	0.51	-0.5
CCC(CC)NC(=O)COc1ccc(-c2nnco2)cc1	nt	0.95
CN(C)c1ccc(NC(=O)c2ccccc2)cc1	0.13	-0.05
CCOC(=O)N1CCN(S(=O)(=O)c2ccc(F)c(C(=O)Nc3ccc(Br)cc3)c2)CC1	0.17	nt
FC(F)(F)C12CC(c3ccccc3)=NCCN1CCN2 (centres undefined)	1.2	0.15
O=C(CSc1nc2nn(-c3ccccc3)c(=O)c-2c2n1CCCCC2)Nc1ccc2c(c1)OCO2	nt	1.6
Cc1cc(C(=O)NCc2ccc3c(c2)OCCCO3)nn1C	-0.29	-0.1
FC(F)(F)c1cccc(-c2[nH]ncc2-c2ccncn2)c1	-0.36	nt
CC(C)c1cccc(C(C)C)c1NC(=O)Cc1cccs1	-0.86	-0.35
O=C(CN1CC2CC(C1)c1cccc(=O)n1C2)c1ccc2cc[nH]c2c1 (centres undefined)	4.3	-0.3
O=c1[nH]c2c(n1-c1ccccc1)C=Nc1cc3ccccc3cc1N2	13	0.15
CCOC(=O)CSc1n[nH]c(-c2ccncc2)n1	0.14	nt
CCn1c(C)c(C2=CCN(S(=O)(=O)c3ccc(C)cc3)CC2)c2ccccc21	-0.72	0.3
CC1CC(C)CN(S(=O)(=O)c2ccc(C(=O)Nc3cccc4c3C(=O)c3ccccc3C4=O)cc2)C1 (centres undefined)	0.35	nt
O=c1cc(-c2ccccc2)c2cc(Cl)c(O)cc2o1	2.7	-0.5
C1=CCC2NC(C1)Cc1ccccc12 (centres undefined)	nt	-0.25
CCc1cc2c(s1)NC(=O)CN=C2c1cccs1	nt	-0.25
CCc1ccc(-c2cc3c(=O)n(CC(=O)NC4CCCC(C)C4C)nc(C)n3n2)cc1 (centres undefined)	0.6	0.55
Cc1cccc(-n2cnc3cc(C(=O)NCc4ccc(F)cc4)ccc32)c1	0.52	-0.25
CCOc1ccc(N2C(=O)NC(=O)/C(=C/c3ccc(OC)c(OC)c3)C2=O)cc1	0.29	nt
CS(=O)(=O)Nc1ccccc1C(N)=O	nt	0
COc1cc(C(=O)CSc2nccc(C)n2)cc(OC)c1OC	nt	-0.15
Cc1nc2ccccc2c(=O)n1-c1ccc(C(=O)NC(C)c2ccccn2)cc1 (centres undefined)	nt	1.8
CC(c1ccccc1)C1Nc2ccccc2C(=O)N1c1ccccc1 (centres undefined)	15	-0.65
Cc1ccc(C23CCC(=O)N2C(C(=O)NC2CC2)CS3)cc1 (centres undefined)	nt	-0.2
CC(C)COc1ccc(C(=O)OCCN2CCCCC2)cc1	0.12	0.15
CC(C)NC(=O)c1ccc(OC2CSC2)cc1	nt	-1.5
COc1ccc(/C=C(\C#N)c2nnc3n2CCCCC3)cc1	-0.38	nt
CC(C)c1cc(C(=O)NCc2ccc(Cl)cc2)no1	0.09	0.65
CSc1nn(Cc2ccccc2)c(N)c1S(=O)(=O)c1ccccc1	-0.035	-0.3
O=C(Nc1nnc(-c2ccccc2)o1)C1CCCCC1	-0.39	-0.5
COc1ccc(CN(C)CCc2ccccn2)c(OC)c1OC	0.01	0.5
CCC1Oc2ccc(C)cc2N(CC(=O)NCC2COc3ccccc3O2)C1=O (centres undefined)	0.3	-0.7
COc1ccc2oc(=O)cc(C)c2c1	38	-0.6
CC1CCN(c2nc3ccccn3c(=O)c2/C=N/NC(=O)c2ccccc2)CC1	-0.29	-0.95

More records follow.
SMILES	CapD inh	AID504770
O=C(c1ccc(C(=O)N2CCCCCC2)cc1)N1CCCCCC1	0.07	-0.45
COc1ccc(NC(=O)CSc2ncc(S(=O)(=O)c3ccccc3)c(=O)[nH]2)c(OC)c1	-0.2	2
COc1ccc(N2CC(O)(c3ccc(OC)c(OC)c3)[N+]3=C2SCCC3)cc1 (centres undefined)	-0.34	nt
CCOC(=O)C1=C(C)NC2=C(C(=O)C(C(=O)OCC)C(c3ccccc3OC)C2)C1c1ccc2c(c1)OCO2 (centres undefined)	7.4	nt
CC(C)[C@@H](C(=O)O)N1Cc2ccccc2C1=O	-0.1	-0.35
O=C(OCC1CCOC1)N1CCC2(CC1)C(=O)NCN2c1ccccc1 (centres undefined)	0.26	nt
COc1ccccc1C1CC(c2ccc(C)cc2)=NN1S(=O)(=O)c1ccccc1 (centres undefined)	-0.44	nt
CCOC(=O)C1CCN(C(=O)CCN2C(=O)c3ccccc3Sc3ncccc32)CC1	-0.19	-0.25
Cc1cc(C)cc(NC(=O)/C=C\C(=O)O)c1	-0.27	0.15
CCSc1ncc2c(c1C#N)CCC2	6	2.1
CCOC(=O)N1CC=C(c2c(C)[nH]c3ccccc23)CC1	27	0.05
OC(COc1ccccc1)CN1CCN(c2ccc(C(F)(F)F)cn2)CC1 (centres undefined)	0.84	0.2
Cc1cccc(NC(=O)c2ccccc2Cl)c1	0.33	0.5
O=C(O)c1ccc(-n2nc(C(F)(F)F)c3c2CCCC3)cc1	-0.68	0
Nc1nc2n(n1)C(c1cccs1)CC(c1ccc(Cl)cc1Cl)N2 (centres undefined)	nt	0.1
COc1cc(C2C(C(=O)Nc3ccccn3)=C(C)Nc3nnnn32)ccc1OCc1ccccc1 (centres undefined)	1.4	nt
COC(=O)C1SC(C)SCC1=O (centres undefined)	0.53	0.2
